StopGo RLuc: FMDV 2A StopGo reporter, Renilla signal; HEK cells with a luciferase reporter of 2A StopGo recoding; Potency, µM (highest dose often 57.5 µM), without a hit: top-dose signal change, negative = less light; actives 0.32% (n = 120,000); AID 1745857; active means well fitted falling curve with a large enough effect; inconclusive means small, poorly fitted or top-dose-only effect; inactive means no such curve, though single readings can be large or run the other way; note: nearly all actives have a fitted effect of over 55% in size; overnight with compound
StopGo FLuc: FMDV 2A StopGo reporter, firefly signal | HEK cells with a luciferase reporter of 2A StopGo recoding | Potency, µM (top dose mostly 57.5 µM), for the others: top-dose signal change, negative = less light | actives 0.23% (n = 120,000); active = well fitted falling curve with a large enough effect; inconclusive = small, poorly fitted or top-dose-only effect; inactive = no such curve, though single readings can be large or run the other way; note: nearly all actives have a fitted effect of over 60% in size; overnight with compound
The depositor's hits bear a star; ? = inconclusive; [ ] = another dose, or the depositor's remark. % is set by controls: 0 for no effect and ±100 for the full control effect; potency is the fitted concentration of half-maximal effect. Some of the compounds tested, so the mix of outcomes need not match the whole.

SMILES | StopGo RLuc | StopGo FLuc
COc1cc(CCNC(=O)c2ccc3c(c2)c(C)c(C)n3Cc2cccc(C)c2)cc(OC)c1OC | -3% | -9%
Cc1c(Cl)cccc1NC(=O)C1CCCN(C(=O)Cc2cccc3ccccc23)C1 (centres undefined) | 8% | -1%
COc1ccc(NC(=O)C(=O)NCC(c2cccnc2)N2CCc3ccccc3C2)cc1 (centres undefined) | ? | ?
CNC(=O)NC(=O)COC(=O)c1csc(NCc2ccccc2)n1 | -6% | 11%
CC(C)CNC(=O)CCSc1nc(-c2ccc3c(c2)OCO3)cc(C(F)(F)F)n1 | -5% | -9%
COc1ccc(Cl)cc1Nc1ccc2cc(S(=O)(=O)N3CCCCC3)ccc2n1 | 5% | 2%
Cc1nc2c(-c3ccccc3)c(C)nn2c(C)c1CCC(=O)NCc1ccc(Cl)cc1 | -6% | -23%
CCCNC(=O)C1CCN(c2nc3ccc(C)cc3[nH]2)CC1 | -16% | 37%[activator]
Cc1cc(O)c(C(=O)/C=C/c2ccccc2)cc1Cl | 10% | 34%
CCc1nn2c(=O)cc(CNc3cc(F)ccc3F)nc2s1 | -11% | -1%
Cc1ccccc1C(=O)Nc1cc2c(cc1N1CCOCC1)n(C)c(=O)n2C | -6% | -8%
CCOC(=O)/C(C#N)=C1\SCC(C#N)S1 (centres undefined) | 15% | 34%[activator]
O=C(CN1CCN(c2ccc([N+](=O)[O-])c3cnccc23)CC1)Nc1ccccc1F | -23% | -14%
Cc1cc(NC(C)C2CC3CCC2C3)n2ncnc2n1 (centres undefined) | ? | -22%
O=C(Nc1ccc(F)cc1F)c1cc2c(=O)n3ccccc3nc2s1 | 9% | 128%[activator]
COc1cccc(CNC(=O)CCc2cn(Cc3ccccc3Cl)c3ccccc23)c1 | -2% | -9%
CCCNC(=O)NC(=O)CSc1nc2ccccc2o1 | -4% | -2%
O=C(CN1CCN(c2ccc(Cl)cc2)CC1)Nc1ccc(F)c(F)c1 | -10% | -12%
CC(OC(=O)c1nn(C)c(=O)c2ccccc12)C(=O)c1c[nH]c2ccccc12 (centres undefined) | 15% | 2%
CN(N=O)C(=O)N[C@@H]1[C@@H](O)[C@H](O)[C@@H](CO)O[C@@H]1O | -12% | -11%[11.5 µM]
CC(C)CCn1c(SCCN2CCOCC2)nc2c1c(=O)[nH]c(=O)n2C | -15% | -6%
Cc1ccc(OCC(=O)N(Cc2nc(-c3ccccc3)no2)C(C)C)cc1C | -2% | -5%
CCOc1ccc(NC(=O)CSc2nnc(-c3ccc(C)cc3)c(-c3ccc(C)cc3)n2)cc1 | 12% | 57%[activator]
CCn1nc(C(=O)N2CCc3ccccc32)c2ccccc2c1=O | 18% | 10%
COc1ccc(Nc2nc(-c3ccc(NC(C)=O)cc3)cs2)cc1 | 21% | 33%[activator]
CCCC(=O)Nc1scc(-c2ccc(OC)c(OC)c2)c1C(=O)OCC | 5% | 0%
O=C(O)c1cc(Cl)ccc1F | 1% | 6%
COc1cccc(NC(=O)COC(=O)COc2ccc3c(C)cc(=O)oc3c2)c1 | -3% | 17%
CCCC(C)NC(=O)CN1CCN(c2oc(-c3ccco3)nc2C#N)CC1 (centres undefined) | 4% | -5%
O=CN1CCN(C(C(=O)O)c2c[nH]c3cc(NC(=O)c4ccccc4)ccc23)CC1 (centres undefined) | -2% | ?

Already shown: an excerpt of the list.
SMILES | StopGo RLuc | StopGo FLuc
Cc1ccccc1C(=O)Nc1cc2c(cc1N1CCOCC1)n(C)c(=O)n2C | -6% | -8%
CCOC(=O)/C(C#N)=C1\SCC(C#N)S1 (centres undefined) | 15% | 34%[activator]
O=C(CN1CCN(c2ccc([N+](=O)[O-])c3cnccc23)CC1)Nc1ccccc1F | -23% | -14%
Cc1cc(NC(C)C2CC3CCC2C3)n2ncnc2n1 (centres undefined) | ? | -22%
O=C(Nc1ccc(F)cc1F)c1cc2c(=O)n3ccccc3nc2s1 | 9% | 128%[activator]
COc1cccc(CNC(=O)CCc2cn(Cc3ccccc3Cl)c3ccccc23)c1 | -2% | -9%
CCCNC(=O)NC(=O)CSc1nc2ccccc2o1 | -4% | -2%
O=C(CN1CCN(c2ccc(Cl)cc2)CC1)Nc1ccc(F)c(F)c1 | -10% | -12%
CC(OC(=O)c1nn(C)c(=O)c2ccccc12)C(=O)c1c[nH]c2ccccc12 (centres undefined) | 15% | 2%
CN(N=O)C(=O)N[C@@H]1[C@@H](O)[C@H](O)[C@@H](CO)O[C@@H]1O | -12% | -11%[11.5 µM]
CC(C)CCn1c(SCCN2CCOCC2)nc2c1c(=O)[nH]c(=O)n2C | -15% | -6%
Cc1ccc(OCC(=O)N(Cc2nc(-c3ccccc3)no2)C(C)C)cc1C | -2% | -5%
CCOc1ccc(NC(=O)CSc2nnc(-c3ccc(C)cc3)c(-c3ccc(C)cc3)n2)cc1 | 12% | 57%[activator]
CCn1nc(C(=O)N2CCc3ccccc32)c2ccccc2c1=O | 18% | 10%
COc1ccc(Nc2nc(-c3ccc(NC(C)=O)cc3)cs2)cc1 | 21% | 33%[activator]
CCCC(=O)Nc1scc(-c2ccc(OC)c(OC)c2)c1C(=O)OCC | 5% | 0%
O=C(O)c1cc(Cl)ccc1F | 1% | 6%
COc1cccc(NC(=O)COC(=O)COc2ccc3c(C)cc(=O)oc3c2)c1 | -3% | 17%
CCCC(C)NC(=O)CN1CCN(c2oc(-c3ccco3)nc2C#N)CC1 (centres undefined) | 4% | -5%

Later entries.
SMILES | StopGo RLuc | StopGo FLuc
Cc1ccc(Cl)cc1NC(=O)c1cc(S(=O)(=O)N2CCOCC2)cn1C | -8% | -9%
COc1ccc(F)cc1C(=O)COC(=O)C1(c2ccc(Cl)cc2)CC1 | -7%[1.06 µM] | -6%
O=C(Nc1ccc2[nH]c(=O)c(=O)[nH]c2c1)c1cccc(F)c1 | -9% | 2%
COc1ccc(-c2nnc(COC(=O)c3[nH]c(C)c(C(C)=O)c3C)o2)cc1 | 6% | 19%
CC1CCc2c(sc3ncnc(N4CCS(=O)CC4)c23)C1 (centres undefined) | -6% | -14%
Oc1cccc(Nc2nc(-c3ccc(F)cc3F)cs2)c1 | 6% | 84%[activator]
Cc1ccc(CSc2cn(CC(=O)N3CCCCC3)c3ccccc23)cc1 | 104%[activator] | 172%[activator]
CCCCN1C(=O)CCc2cc(NS(=O)(=O)CCC)ccc21 | 25% | 22%
FC(F)(F)c1cnc(Sc2nnc(-c3ccncc3)n2C2CC2)c(Cl)c1 | 6% | 5%
COc1ccc(C)cc1S(=O)(=O)Nc1ccc(Nc2nc(C)cc(N3CCCC3)n2)cc1 | 199%[activator] | 12%
CCCOc1ccc(NC(=O)COc2ccccc2)c2cccnc12 | -18% | -8%
Cc1ccc(OC(=O)CSc2nnc(-c3ccc4c(c3)OCO4)o2)cc1 | -9% | ?
CC(C)CNc1oc(-c2ccc([N+](=O)[O-])cc2)nc1C#N | 3% | -14%
COC(=O)CN(CC(=O)OC)NC(=O)CCC(=O)O | 13% | 3%
N#CCc1ccc(OCC(O)Cn2cnc3cc(Cl)ccc3c2=O)cc1 (centres undefined) | -21% | -8%

Part of the list above, field by field:
> COc1ccc(F)cc1C(=O)COC(=O)C1(c2ccc(Cl)cc2)CC1
- StopGo RLuc = -7%[1.06 µM]
- StopGo FLuc = -6%
> O=C(Nc1ccc2[nH]c(=O)c(=O)[nH]c2c1)c1cccc(F)c1
- StopGo RLuc = -9%
- StopGo FLuc = 2%

(more compounds)
SMILES | StopGo RLuc | StopGo FLuc
O=C(Cc1cccs1)Nc1c(C(=O)Nc2ccc(F)cc2)oc2ccccc12 | 20% | 173%[activator]
O=C(c1cccc2[nH]ccc12)N1CCN(S(=O)(=O)c2cccc3nonc23)CC1 | -3% | -18%
CCOc1ccc2c(c1)S/C(=C\c1ccc(Cl)cc1)C(=O)N2 | 0% | 23%
O=C(CSC1c2ccccc2Oc2ccccc21)Nc1ccccc1C(=O)O | ? | 15%
Cc1ccc(N(Cc2cccs2)C(=O)c2ccccc2[N+](=O)[O-])cc1 | -11% | 5%
Cc1cc2oc(C(=O)N(Cc3ccccc3Cl)C3CCS(=O)(=O)C3)cc(=O)c2cc1Cl (centres undefined) | 3% | 13%
CC(C)c1ccc(NC(=O)CNC(=O)Cn2ccc3ccccc3c2=O)cc1 | -7% | -9%
COc1ccc(C(=O)OCc2nc(N)c3ccccc3n2)c(O)c1 | 28% | 44%[activator]
CCOc1cccc(C(c2c[nH]c3ccccc23)c2c[nH]c3ccccc23)c1O | 40%[activator] | 0%
COC(=O)c1ccc(/C=N/OCc2cc(C(C)=O)ccc2OC)cc1 | 14% | 15%
Cn1c(NC(=O)c2ccc(Br)cc2)cc(=O)n(C)c1=O | -14% | -14%
CCc1ccc(C(=O)Nc2ccc3nn(-c4ccc(C)c(Cl)c4)nc3c2)cc1 | -6% | 123%[activator]
COc1ccc(CNC(=O)CN2C(=O)CCn3nc(-c4ccccc4)cc32)c(OC)c1 | -10% | -10%
CC(CNC(=O)Nc1ccc(C(F)(F)F)cc1)CN1CCN(C)CC1 (centres undefined) | 3% | 130%[activator]
O=C(CCc1cccnc1)Nc1ccc(N2CCOCC2)cn1 | -9% | 7%
COc1cc(NC(=O)Nc2nnc(N3CCCCC3)s2)cc(OC)c1 | -3% | 6%
O=C(Nc1ccc(OC(F)(F)F)cc1)c1cc2c(=O)n3ccccc3nc2s1 | 1% | 19%
O=c1n(Cl)c(=O)n(Cl)c(=O)n1Cl | -4% | -4%[11.5 µM]
CCOC(=O)C(CC)Sc1c(CC)cnc2c1c(=O)n(C)c(=O)n2C (centres undefined) | -10% | -1%
Cc1ccc(C#CC[N+]2(C)CCCCC2)cc1 | -2% | -7%
Cc1cccc(NC(=O)CSC2=C(C#N)C3(CCC(C(C)(C)C)CC3)C(C#N)C(=O)N2)c1 (centres undefined) | -8% | -5%
CCOC(=O)c1ccc(NC(=O)CC2C(=O)N(c3cccc(OC)c3)C(=O)N2C2CCCCC2)cc1 (centres undefined) | 31%[activator] | -18%
CCCCn1c(=O)c2oc3ccccc3c2n(Cc2ccc(C)cc2)c1=O | -14% | -11%
CCCCn1cnc2c1c(=O)n(CC(=O)Nc1cccc(Cl)c1)c(=O)n2CCC | 12% | -13%
Cc1ccc(SCc2ccc(C(=O)Nc3c(C)cccc3C)cc2)cc1 | 9% | -6%
CCOC(=O)C(=Cc1ccccc1)C(=O)OCC | ? | ?
O=C(CN1C(=O)COc2ccc(S(=O)(=O)Nc3ccccc3)cc21)NCc1ccccc1Cl | 104%[activator] | -8%
COc1ccc(NC(=O)Nc2ccc3nc(N4CCOCC4)cc(C)c3c2)cc1OC | -4% | -4%
COCc1nnc(NC(=O)C2CC(=O)N(CCc3c[nH]c4ccc(Cl)cc34)C2)s1 (centres undefined) | -5% | -11%
O=C(NCCN1CCN(S(=O)(=O)c2ccc3ccccc3c2)CC1)C(=O)Nc1ccccc1 | 11% | 58%[activator]
Cc1cc(NC(=O)N2Cc3cccn3-c3ccccc32)ccc1Br | 7% | 30%
CCCCCCCOC(=O)Nc1ccc(C)cc1 | -8% | 63%[activator]
NS(=O)(=O)c1ccc(-c2ccc(/C=N/Nc3ccc(S(=O)(=O)Nc4ccccc4)cc3[N+](=O)[O-])o2)cc1 | 197%[activator] | 16%
O=C(O)c1cccc(NC(NC(=O)c2cccs2)C(=O)c2ccccc2)c1 (centres undefined) | 10% | 133%[activator]
COc1ccc(CNC(=O)C2CCN(Cc3nc(-c4ccc(OC)c(OC)c4)oc3C)CC2)cc1 | -8% | -7%
O=C1CCN=C(S/C(=C/c2ccc(Cl)cc2)C(=O)O)N1 | 0% | 183%[activator]
COc1cc(/C=N/OCc2cccc(Br)c2)cc(OC)c1OC | 5% | 5%
COc1cc(/C=C(/C#N)c2nc3ccccc3[nH]2)ccc1OC(F)F | 81%[activator] | 0%
Cc1cccc(NC(NC(=O)c2ccc(Cl)cc2)C(Cl)(Cl)Cl)c1 (centres undefined) | ? | ?
Cc1ccc(-c2nn3c(C)nnc3c3ccccc23)cc1S(=O)(=O)NCCO | 449%[activator] | 44%[activator]
CCOC(=O)c1sc2nc(CC(=O)OC)nc(Nc3ccc(Cl)cc3)c2c1C | 0% | 1%
O=C(CCC1CCCC1)NCc1cccnc1 | 16% | 0%
CCc1ccc(-n2nc3cc(C)c(NC(=O)c4cc(OC)cc(OC)c4)cc3n2)cc1 | -1% | 9%
CCCc1nnc(NC(=O)c2cc(=O)c3ccc(C)c(C)c3o2)s1 | -4% | 0%
Cc1cc(C)c2oc(C(=O)Nc3sc4c(c3C(=O)NCc3ccco3)CCCC4)cc(=O)c2c1 | -6% | -13%
Cc1cc(C)c(NC(=O)Cn2c(=O)n(Cc3ccc(C(=O)NCc4ccc5c(c4)OCO5)cc3)c(=O)c3ccccc32)c(C)c1 | -7% | -10%
CC1CCC2(CC1)N=C(c1ccc(Cl)cc1Cl)C(=S)N2 (centres undefined) | 6% | 11%
O=C(c1cn(Cc2ccccc2)c2ccccc12)N1CCC1 | 16% | 11%
COc1ccc(-c2nn(-c3ccc(C)c(Cl)c3)c3c2cnc2cc(OC)c(OC)cc23)cc1 | -1% | -5%
CCCOc1ccc(C2c3c(oc4ccccc4c3=O)C(=O)N2c2nc(C)c(C(=O)OCC)s2)cc1 (centres undefined) | -3% | -13%
CSc1ccc(C(C)NC(=O)C(C)C)cc1 (centres undefined) | 12% | -13%
COc1ccc(C2=C(C)C(N3CCC(C(=O)Nc4cc(C)ccc4C)CC3)=NS2(=O)=O)cc1 | -1% | -13%
CCc1c(C)c2ccc3c(c2oc1=O)CN(Cc1ccccc1)CO3 | 12% | 47%[activator]
Cc1ccc(C(=O)NCc2ccc(N3CCN(C)CC3)nc2)o1 | -8% | 4%
CC(Sc1nc(NC2CC2)c2ccccc2n1)C(=O)N(C)C (centres undefined) | 7% | 7%
CCOC(=O)c1c(-c2ccccc2)oc2ccc(OCc3ccccc3Br)cc12 | -2% | -7%
COc1ccccc1NC(=O)Nc1nc(CC(=O)NCC2CCCCC2)cs1 | 1% | 36%[activator]

Screening data as filed in PubChem.
